# Screening results (PubChem)
# HTT promoter inh = inhibitors of huntingtin promoter activity; HEK293 HTT promoter firefly luciferase reporter (activity 0% = vehicle and -100% = no light), 24 h; Potency, µM (titrated, usually from 57.5 µM), for the others: at the top dose activity change, negative = inhibition, hits mostly inhibitors; 48,000 tested, 0.93% active; active = well fitted inhibition curve with a large enough effect; inconclusive = small, poorly fitted or top-dose-only effect; inactive = no such curve, though single readings can be large or run the other way; note: nearly all actives have a fitted effect of over 50% in size
#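 HEK293 cells carrying firefly luciferase reporters were seeded at 2,500 per well in Opti-MEM and cultured for 24 h. They were then treated with compounds at up to 57.5 uM final for 24 h at 37 degrees C before Dual-Glo luminescence readout.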
# PMP22 txn = modulators of PMP22 gene transcription in S16 Schwann cells; S16 Pmp22-F2sN Schwann cells (luciferase reporters placed in the Pmp22 gene), FLuc/NLuc coincidence luminescence, 24 h; 43,000 tested, 2% active; Potency, µM (series often up to 57.5 µM), for inactives: at the highest dose activity change, negative = inhibition, hits mostly inhibitors; active = clear falling dose curves in both reporters; inconclusive = both reporters move, but less clearly or upward; inactive = either reporter flat; the % is the NLuc reporter signal; note: % is set by controls: 0 for no effect and ±100 for the full control effect; some results filed as inactive show a strong effect at the top dose
#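 Luminescent read-out of sequential FLuc and NLuc signals from a reporter embedded in the Pmp22 3' UTR of S16 Schwann cells, taken after 24 h compound exposure at 37C; compounds reducing both signals score as inhibitors of expression.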
# * marks the source's active call; other numbers are inactive results; ? = inconclusive; / = not tested or not shown; & = joins results of further samples; [ ] = dose if it differs, or a comment. Potency is the fitted concentration of half-maximal effect. An excerpt; count on the stated rates, not on these rows.
SMILES,HTT promoter inh,PMP22 txn
COc1ccccc1N1CCN(C(=O)c2cc3c(s2)-c2ccccc2OC3)CC1,-33%,-25%
Cc1cccn2c(=O)c3cc(C#N)c(=O)n(-c4nnc(SCc5ccc(F)cc5)s4)c3nc12,-14%,10µM*
Cc1ccc(-c2cnc(C3CC3)o2)cc1S(=O)(=O)Nc1ccc(F)cc1Cl,?,?
CCOC(=O)c1cc2c(=O)n3ccccc3nc2n(CC(C)C)c1=NC(=O)C(C)(C)Oc1ccc(Cl)cc1,-13%,?
CCCC(=O)N(c1ccc2oc(C)c(C(C)=O)c2c1)S(=O)(=O)c1ccc(CC)cc1,5µM*,8.4µM*
CC(C)(C)OC(=O)N1CCC(c2c(C(=O)NCCN3CCOCC3)cnn2-c2ccccc2)CC1,-20%,?
CCCCNC(=O)C(CC)Sc1nc2ccccc2c(=O)n1Cc1ccco1 (configuration not stated),-17%,-4%
CN(CC(=O)NCc1ccccc1Cl)S(=O)(=O)c1ccc2c(c1)c(=O)n(C)c(=O)n2C,-9%,0%
Cc1ccc2c(c1)C(=O)OC(C(=O)Nc1ncc(Cc3ccccc3)s1)C2 (configuration not stated),7%,1%
O=C(Cc1ccccc1)Nc1c(C(=O)Nc2ccccc2F)oc2ccccc12,-3%,?
Cc1ccc(NC(=O)Cn2c(=O)n(CCC(=O)NCCc3ccccc3)c(=O)c3ccccc32)cc1,2%,?
N#Cc1ccccc1Cn1c(=O)n(CCCCC(=O)NCc2ccc3c(c2)OCO3)c(=O)c2ccccc21,-13%,?
CCOc1ccc(NC(=O)Cn2c(=O)n(CCCCCC(=O)NCc3ccccc3)c(=O)c3sccc32)cc1,-9%,?
O=C(Nc1ccc(F)cc1)c1oc2ccccc2c1NC(=O)C12CC3CC(CC(C3)C1)C2,-9%,-31%
COc1ccc2c(c1)c(N1CCCC1=O)c(C(=O)Nc1ccc(OC)c(Cl)c1)n2C,?,?
O=C(COCc1cc(-c2cccs2)on1)Nc1cc(Cl)ccc1O,-22%,-11%
NC(=O)c1cc(S(=O)(=O)NCC2CCC(C(=O)Nc3cccc(Cl)c3)CC2)cs1 (configuration not stated),-32%,2%
CCC1CCCCN1S(=O)(=O)c1ccc(NC(=O)c2nc(SC)ncc2Cl)cc1 (configuration not stated),?,?
CCOc1ccc2oc(=O)cc(CN3CCN(c4ccccc4OC)CC3)c2c1,-12%,?
Cc1ccc(-c2nc3scc(CCNS(=O)(=O)c4ccc(C)c(C)c4)n3n2)cc1,-28%,-24%

# The closing 5 entries of the part above lead into the next.
SMILES,HTT promoter inh,PMP22 txn
O=C(COCc1cc(-c2cccs2)on1)Nc1cc(Cl)ccc1O,-22%,-11%
NC(=O)c1cc(S(=O)(=O)NCC2CCC(C(=O)Nc3cccc(Cl)c3)CC2)cs1 (configuration not stated),-32%,2%
CCC1CCCCN1S(=O)(=O)c1ccc(NC(=O)c2nc(SC)ncc2Cl)cc1 (configuration not stated),?,?
CCOc1ccc2oc(=O)cc(CN3CCN(c4ccccc4OC)CC3)c2c1,-12%,?
Cc1ccc(-c2nc3scc(CCNS(=O)(=O)c4ccc(C)c(C)c4)n3n2)cc1,-28%,-24%
COC(=O)c1ccc(NC(=O)CCc2c(C)nc3c(c(C)nn3-c3ccc(C)cc3)c2C)cc1,-13%,-27%
Cn1c(=O)[nH]c2cc(-c3noc(-c4ccc(F)cc4)n3)ccc21,46%[activator],-2%
O=C(NCc1cccc(Cl)c1)c1ccc(CS(=O)Cc2ccccc2Cl)o1 (configuration not stated),-27%,?
CCOc1ccc(NC(=O)Cn2c(=O)cc(C)c3c(C)nn(C)c32)cc1,-24%,-14%
COc1cccc(/C=C/c2onc(C)c2S(=O)(=O)N2CCC(C(=O)N3CCCCC3)CC2)c1,?,?
COc1ccccc1CCNC(=O)Cn1ccc2cc(S(=O)(=O)N3CCCCCC3)ccc21,?,?
Cc1ccc(-n2ncc3c(Nc4cccc(Cl)c4)ncnc32)c(C)c1,-14%,-40%
Cc1ccc(CN2C(=O)c3ccccc3C2C(=O)NC2CCCCCC2)cc1 (configuration not stated),7%,-11%
CCc1ccc(NC(=O)C(CC)n2nnc(C(=O)OC)c2C(=O)OC)cc1 (configuration not stated),29%,-1%
O=C(Nc1ccc(Br)cc1)C1CCN(c2cnccn2)CC1,?,-8%
Cc1ccc(NC(=O)C2CCN(S(=O)(=O)c3ccc4c(c3)CCCC(=O)N4)CC2)c(Cl)c1,-35%,-12%
O=C(NCCc1ccccc1)C(=O)NCC(c1cccs1)S(=O)(=O)c1cccs1 (configuration not stated),-32%,?
Cc1cc(Br)ccc1NC(=O)c1cc2c(s1)-c1ccccc1SC2,-22%,-47%
CCCCCN(CCCCC)C(=O)C(CCC(=O)O)NC(=O)c1ccc(Cl)c(Cl)c1 (configuration not stated),-12%,/
CCCn1c(=O)c2sccc2n2c(CCCC(=O)N3CCN(c4ccccc4)CC3)nnc12,-7%,1%
Cc1ccc(C(=O)Nc2cccc(OCc3cc(=O)n4c5c(sc4n3)CCCC5)c2)cc1,-7%,-16%
CC(C)c1cnn2c(NCc3ccccc3)cc(NCCCCCCN)nc12,?,/
Cc1ccccc1C(=O)Nc1ccc(C(=O)OCc2cc(=O)n3c4c(sc3n2)CCCC4)cc1,?,?
CCC1CN(S(=O)(=O)c2cc(-c3cc(C)no3)ccc2C)c2cc(Cl)ccc2O1 (configuration not stated),-11%,?
COc1cccc(NS(=O)(=O)c2cc(-c3cnc(C4CC4)o3)ccc2C)c1,?,8.5µM*
COc1ccc(CCCc2nnc(SCC(=O)Nc3ccc(OC)cc3)o2)cc1,-9%,3%
CCCc1noc(-c2ccc(NCc3ccc(C)cc3)c([N+](=O)[O-])c2)n1,-11%,-31%
CCOc1ccccc1NC(=O)c1c2c(nc3ccccc13)C(=O)N(C1CCCCC1)C2,?,?
COc1ccc(OC)c(CNC(=O)c2ccc(Sc3ccc(C)cc3)c(N)c2)c1,?,?
CCc1nnc2c3ccccc3nc(N3CCN(c4ccc(C)cc4C)CC3)n12,-21%,-6%
CC(C)c1ccc(NC(=O)c2cnc3sc(N4CCCC4)nn3c2=O)cc1,?,-2%
Cc1ccc(Cl)cc1NC(=O)N1CCc2cc(S(=O)(=O)N3CCC(C)CC3)ccc21,-6%,-35%
CCOC(=O)c1ccc(NC(=O)CSc2nc(-c3ccc(F)cc3)cc(C(F)(F)F)c2C#N)cc1,-4%,-20%
COC(=O)c1ccc(CSc2nc3ccncc3n2Cc2ccc(F)cc2)cc1,-10%,-7%
Cc1ccc(C)c(-n2cc(-c3ccccc3)nc2SCC(=O)Nc2ccccc2)c1,?,21%
COc1ccc(-c2nc3c4ccccc4n(CC(=O)N4CCN(c5ccc(F)cc5)CC4)c(=O)n3n2)cc1,-2%,-10%
COc1ccc(Cl)cc1NS(=O)(=O)c1ccc2[nH]c3c(c2c1)CCCC3,-18%,?
CC(=O)N1CCc2cc(CNS(=O)(=O)c3ccc(F)cc3)ccc21,10%,-6%
Cc1ccc(S(=O)(=O)c2cn(Cc3ccccc3Cl)c3ccc(F)cc3c2=O)cc1,-13%,?
CCOc1ccc(NC(=O)CCNS(=O)(=O)c2cccs2)cc1,11%,13%
CCCN(CCC)C(=O)Cn1c(=O)n(-c2ccc(C)cc2)c(=O)c2ccc(C(=O)NCc3ccccc3Cl)cc21,-19%,-15%
COc1cccc(NC(=O)CC2Nc3cc(C)c(C)cc3NC2=O)c1 (configuration not stated),-17%,-20%
COc1cc(C2CC(=O)c3c([nH]c(C(=O)OCc4ccc(C)cc4)c3C)C2)cc(OC)c1OC (configuration not stated),?,?
Cc1cccn2c(=O)c(C(=O)N3CCN(c4ccccc4)CC3)cnc12,36%[activator],-22%
Cc1ccc(Cl)cc1N1CCN(C(=O)C2CCN(S(=O)(=O)c3c(C)noc3/C=C/c3ccccc3F)CC2)CC1,?,-3%
COc1ccc(C(=O)c2oc3ccccc3c2NC(=O)COc2cccc(C)c2C)cc1,5%,8%
CCOC(=O)c1ccc(NC(=O)CCS(=O)(=O)c2ccc3c(c2)oc(=O)n3C)cc1,-9%,-4%
CCOc1ccc(CN2C(=O)c3ccccc3C2C(=O)NCCc2ccc(OC)c(OC)c2)cc1 (configuration not stated),-4%,-3%
CC(NC(=O)CSc1n[nH]c(-c2ccccc2Cl)n1)c1nc2ccccc2[nH]1 (configuration not stated),0%,1%
COc1ccc(C(=O)Nc2ccc(-c3nnc4n3CCCCC4)cc2)cc1OC,-8%,0%
CCS(=O)(=O)c1nc(S(=O)(=O)c2ccc(C)cc2)c(NC(C)c2ccccc2)s1 (configuration not stated),?,?
CCn1c2ccccc2c2nnc(SCC(=O)O)nc21,-4%,?
Cc1cc2c(C(C)C)c(O)c(O)c(C=O)c2c(O)c1-c1c(C)cc2c(C(C)C)c(O)c(O)c(C=O)c2c1O,?,/
Cc1csc2nc(COC(=O)c3ccc(NC(=O)C(C)C)cc3)cc(=O)n12,?,-21%
COc1ccc2nc3sc(C(=O)N4CCN(c5ccc(F)cc5)CC4)cc3cc2c1,2%,-12%
CCOc1ccccc1NC(=O)CSC1=Nc2ccccc2C2=NC(CC(=O)NCc3ccc4c(c3)OCO4)C(=O)N12 (configuration not stated),-21%,?
CCOC(=O)c1ccccc1NC(=O)CCc1c(C)nc2ncnn2c1C,-2%,-7%
Cc1ccc(-c2nnn3c2nc(NCc2ccc4c(c2)OCO4)c2ccccc23)cc1,-9%,0%
COc1cccc2c1Oc1ncccc1N(C(=O)CCC(=O)NCCC(C)C)C2,-5%,19%
Cc1ccc(Sc2ccc(N3CCC(C(=O)Nc4cc(C)cc(C)c4)CC3)nn2)cc1,2%,-26%
Cc1ccc(-c2noc(C(C)NS(=O)(=O)c3ccc(C)cc3)n2)cc1 (configuration not stated),-30%,-10%
COc1ccc(NC(=O)c2c(NCc3cccc(F)c3)sc3c2CCCC3)c(OC)c1,?,?
Cc1ccc(C)c(N2CCN(S(=O)(=O)c3c(C)nc4sccn4c3=O)CC2)c1,-5%,-1%
Cc1cccc(NC(=O)COc2cccc3c(=O)n(C)ccc23)c1C,?,?
Cc1ccc(-n2nc(C(=O)N3CCN(c4cccc(C(F)(F)F)c4)CC3)c(=O)n(C)c2=O)cc1,32µM*,?

# Following part:
SMILES,HTT promoter inh,PMP22 txn
O=c1oc2ccc(Cl)cc2cc1-c1nc(-c2cccs2)no1,1%,-4%
Cc1ccc(NC(=O)CSc2nc(-c3ccco3)cc(C(F)(F)F)n2)cc1,-28%,2.1µM*
CCc1ccccc1NC(=O)Cn1c(=O)n(-c2ccc(C)cc2)c(=O)c2cc(OC)c(OC)cc21,-1%,9%
Cc1ccc(N(CC(=O)N2CCN(c3ccccc3)CC2)S(=O)(=O)c2c(C)noc2C)cc1,8%,-13%
COCCNC(=O)CCn1c(=O)c2cc(OC)c(OC)cc2n(CC(=O)Nc2ccc(Cl)cc2F)c1=O,-26%,8%
COc1ccc(C2=Nc3ccc(F)cc3NC(c3cccc(C(F)(F)F)c3)=N2)cc1,-13%,-34%
COc1ccc2c(CNCCc3ccco3)c(C(=O)O)n(Cc3ccccc3)c2c1,-18%,-3%
Cc1oc(-c2cccc(Cl)c2)nc1CSc1nncn2c1cc1occc12,-1%,-6%
COc1cc(NS(=O)(=O)c2ccc(NC(=O)c3ccccc3C(=O)O)cc2)nc(OC)n1,-8%,5%
O=C(NCc1ccc(F)cc1)c1c(O)nc2ccccn2c1=O,0%,21%
Cc1cc(C)n2nc(-c3ccc(Cl)cc3)nc2n1,57%[activator],-20%
Cc1ccc(NC(=O)CN2C(=O)c3cccnc3Sc3ccccc32)c(Br)c1,?,-2%
Cc1ccnc2nc(NC(=O)c3ccccc3Cl)nn12,22%,-8%
O=c1c2ccccc2nc(-c2ccc(Cl)cc2)n1CCCCOc1ccc(F)cc1,-9%,-13%
NS(=O)(=O)c1cc2c(cc1Cl)NC(C(Cl)Cl)NS2(=O)=O (configuration not stated),2%&13%,/
COc1ccccc1CNC(=O)C(=O)NCC(c1ccco1)S(=O)(=O)c1ccc(F)cc1 (configuration not stated),?,-29%
O=C(c1cccc([N+](=O)[O-])c1)N1c2nc(-c3ccco3)nn2C2(CCCCC2)[C@@H]2CCCC[C@@H]21,?,-28%
Cc1ccc2nc(-c3ccsc3)c(Nc3ccc(C(C)C)cc3)n2c1,1%,8%

# Molecules above that contain a cyano group, in the order listed:
SMILES,HTT promoter inh,PMP22 txn
Cc1cccn2c(=O)c3cc(C#N)c(=O)n(-c4nnc(SCc5ccc(F)cc5)s4)c3nc12,-14%,10µM*
N#Cc1ccccc1Cn1c(=O)n(CCCCC(=O)NCc2ccc3c(c2)OCO3)c(=O)c2ccccc21,-13%,?
CCOC(=O)c1ccc(NC(=O)CSc2nc(-c3ccc(F)cc3)cc(C(F)(F)F)c2C#N)cc1,-4%,-20%

# Rewritten as labelled records: entries from further up.
structure: O=c1oc2ccc(Cl)cc2cc1-c1nc(-c2cccs2)no1
  HTT promoter inh: 1%; PMP22 txn: -4%
structure: COc1ccccc1CNC(=O)C(=O)NCC(c1ccco1)S(=O)(=O)c1ccc(F)cc1 (configuration not stated)
  HTT promoter inh: ?; PMP22 txn: -29%
structure: Cc1ccc(N(CC(=O)N2CCN(c3ccccc3)CC2)S(=O)(=O)c2c(C)noc2C)cc1
  HTT promoter inh: 8%; PMP22 txn: -13%
structure: O=c1c2ccccc2nc(-c2ccc(Cl)cc2)n1CCCCOc1ccc(F)cc1
  HTT promoter inh: -9%; PMP22 txn: -13%
